Compound activity from PubChem.
StopGo reporter = High Throughput Screening for Foot and Mouth Disease Virus Antivirals. human cells with a luciferase reporter of 2A StopGo recoding; control for the full effect not named in the record. Potency, µM (series often up to 57.9 µM), inactives show top-dose signal change, negative = less light. 1.2% of 410,000 active; active = well fitted falling curve with a large enough effect; inconclusive = small, poorly fitted or top-dose-only effect; inactive = no such curve, though single readings can be large or run the other way; tested in HEK293T cells; also: nearly all actives have a fitted effect of over 45% in size; luciferase light after 4 h
RE007 growth inh = qHTS Assay for Inhibitors of the HIV-1 protein Vpr. S. pombe RE007 Vpr strain, BacTiter-Glo ATP luminescence, 24 h; control for the full effect not named in the record. Potency, µM (highest dose often 92.2 µM), for the others: top-dose activity change, negative = less growth. 0.21% of 360,000 active. AID 651644, 2012; active = well fitted falling curve with a large enough effect; inconclusive = small, poorly fitted or top-dose-only effect; inactive = no such curve, though single readings can be large or run the other way;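 also: nearly all actives have a fitted effect of over 50% in size; the assay follows cell death caused by Vpr and the record does not say whether a fall means rescue or toxicity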
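Fission yeast strain RE007, carrying one chromosomally integrated HIV-1 vpr copy, was seeded at OD 0.01 in PMG+AL medium with 23 nL pinned compound. After 24 h at 30 °C and 99% humidity, viability was read by BacTiter-Glo luminescence.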
* hit, by the source's call; [ ] = another dose, or the depositor's remark. % is scaled to controls: 0 for no effect and ±100 for the full control effect; potency is read from the fitted curve at half-maximal effect.

Preview (9 entries):
For COc1cccc(C(=O)N2CCC[C@H]2C(=O)N2CCC[C@H]2C(=O)N[C@H](C)c2ccccc2)c1 the results were StopGo reporter -15% and RE007 growth inh 6%.
Screening CSCC[C@@H](CO)NC(=O)[C@H]1O[C@@H](n2ccc(=O)[nH]c2=O)[C@H](O)[C@@H]1O returned StopGo reporter -12% and RE007 growth inh -15%.
For NC(=O)c1ccsc1NC(=O)COC(=O)Cc1ccccc1[N+](=O)[O-] the results were StopGo reporter inconclusive and RE007 growth inh -3%.
For COc1ccc(NC(=O)C2(C)Cc3c(-c4cccc(C(F)(F)F)c4)ccnc3O2)cc1OC (stereo not drawn) the results were StopGo reporter -23% and RE007 growth inh 3%[18.4 µM].
For CCOc1ccccc1CNn1cnnc1 the results were StopGo reporter 1% and RE007 growth inh 8%.
Screening CC(C)c1nc(SCC(=O)N2CCCCC2)c2c(=O)n(C)c(=O)n(C)c2n1 returned StopGo reporter -22% and RE007 growth inh 0%.
Screening CCCCN1C[C@H](CSC)[C@@H](CC(=O)NC)C1=O returned StopGo reporter inconclusive and RE007 growth inh -9%.
`O=C(SCc1c(O)c2ccccc2oc1=O)c1ccccc1` gave StopGo reporter -10% and RE007 growth inh 0%.
Screening COC(=O)[C@@]1(Sc2ccc(C)cc2)CC(=O)N(C(=O)C2CC2)[C@@H]1c1ccccc1 returned StopGo reporter -16% and RE007 growth inh -1%.

Results, from the first entry:
For COc1cccc(C(=O)N2CCC[C@H]2C(=O)N2CCC[C@H]2C(=O)N[C@H](C)c2ccccc2)c1 the results were StopGo reporter -15% and RE007 growth inh 6%.
Screening CSCC[C@@H](CO)NC(=O)[C@H]1O[C@@H](n2ccc(=O)[nH]c2=O)[C@H](O)[C@@H]1O returned StopGo reporter -12% and RE007 growth inh -15%.
For NC(=O)c1ccsc1NC(=O)COC(=O)Cc1ccccc1[N+](=O)[O-] the results were StopGo reporter inconclusive and RE007 growth inh -3%.
For COc1ccc(NC(=O)C2(C)Cc3c(-c4cccc(C(F)(F)F)c4)ccnc3O2)cc1OC (stereo not drawn) the results were StopGo reporter -23% and RE007 growth inh 3%[18.4 µM].
For CCOc1ccccc1CNn1cnnc1 the results were StopGo reporter 1% and RE007 growth inh 8%.
Screening CC(C)c1nc(SCC(=O)N2CCCCC2)c2c(=O)n(C)c(=O)n(C)c2n1 returned StopGo reporter -22% and RE007 growth inh 0%.
Screening CCCCN1C[C@H](CSC)[C@@H](CC(=O)NC)C1=O returned StopGo reporter inconclusive and RE007 growth inh -9%.
`O=C(SCc1c(O)c2ccccc2oc1=O)c1ccccc1` gave StopGo reporter -10% and RE007 growth inh 0%.
Screening COC(=O)[C@@]1(Sc2ccc(C)cc2)CC(=O)N(C(=O)C2CC2)[C@@H]1c1ccccc1 returned StopGo reporter -16% and RE007 growth inh -1%.
Screening O=C(/C=C/[C@H]1O[C@@H](n2ccc(=O)[nH]c2=O)[C@H](O)[C@@H]1O)NCc1ccccn1 returned StopGo reporter -15% and RE007 growth inh 8%.
`CCC1(c2ccccc2)NC(=O)N(C)C1=O` (stereo not drawn) gave StopGo reporter -11% and RE007 growth inh 0%[18.4 µM].
`O=c1[nH][nH]c2c1[C@H](CCc1cccc(Cl)c1)O[C@H](C1CCCC1)C2` gave StopGo reporter -26% and RE007 growth inh 10%.
For CC(=O)Nc1cc(-c2cccc(C(=O)NCCN(C)C)c2)cn2c(-c3ccc(C(C)=O)cc3)cnc12 the results were StopGo reporter -10% and RE007 growth inh -8%.
CC(C)C[C@H]1CNC(=S)N1C[C@H]1CCCN1C[C@H](Cc1ccc(O)cc1)N1C[C@H](Cc2ccccc2)N(CC2CCCCC2)C1=S was read as StopGo reporter -7% and RE007 growth inh 5%.
Screening CC(C)C[C@H]1COc2cc(N3CC[C@@H](O)C3)ccc2S(=O)(=O)N1 returned StopGo reporter -14% and RE007 growth inh 0%.
For CCc1nc2c(OCc3ccc(F)cc3)cccn2c1N(C)C(=O)c1ccc(C)cc1 the results were StopGo reporter -15% and RE007 growth inh -10%.
CCCCNC(=O)C1(C)CCN1Cc1cccc2c(OC)cc(C(=O)OCC)cc12 (stereo not drawn) was read as StopGo reporter inconclusive and RE007 growth inh -15%.
Screening CC1=C(C(=O)N(C(C)C)C(C)C)CC(CC(=O)NCCCN(C)C)C(=O)N1Cc1ccc(F)cc1 (stereo not drawn) returned StopGo reporter -12% and RE007 growth inh -15%.
`C[C@@H]1CN([C@H](C)CO)S(=O)(=O)c2ccc(C#CCN(C)C)cc2O[C@@H]1CN(C)Cc1ccccc1F` gave StopGo reporter 43%[activator] and RE007 growth inh -3%.
For CCCCNC(=O)c1nc(C2CCNCC2)oc1-c1cccc(C(F)(F)F)c1 the results were StopGo reporter -17% and RE007 growth inh -5%.
For CCCCNc1cccc2c1S(=O)(=O)N(CCCC)CC(COCc1ccccc1)O2 (stereo not drawn) the results were StopGo reporter -3% and RE007 growth inh 70%.
For CC1(C)OC(=O)C2=C(C[C@@H](C3CCCCC3)O[C@H]2c2ccccc2)O1 the results were StopGo reporter -26% and RE007 growth inh -13%.
Screening CN1CCN(c2ccc(CNC(=O)C3(C)Cc4c(-c5ccccc5)ccnc4O3)cc2)CC1 (stereo not drawn) returned StopGo reporter -19% and RE007 growth inh -18%.
`C[C@H](NC(=O)[C@@H]1CCCN1C(=O)[C@@H]1CCCN1C(=O)OC(C)(C)C)c1ccccc1` gave StopGo reporter -11% and RE007 growth inh 3%.
Cc1cc(Br)cn2c(CC(C)(C)C)c(C3CCCCC3)nc12 was read as StopGo reporter -18% and RE007 growth inh -2%.
Screening CC(C)CN1C(=O)c2ccccc2C1c1nnnn1-c1ccc2c(c1)OCCO2 (stereo not drawn) returned StopGo reporter -18% and RE007 growth inh -2%.
Screening CCCCNC(=O)C1(C)CCCCN1C(=O)c1ccc(C)c(F)c1 (stereo not drawn) returned StopGo reporter -6% and RE007 growth inh 5%[18.4 µM].
For O=C(C(O)c1ccccc1)N1CCN(S(=O)(=O)c2ccc(C(F)(F)F)cc2)CC1 (stereo not drawn) the results were StopGo reporter -11% and RE007 growth inh 4%.
Screening Cc1cccc(C)c1NC(=O)C(C1CC1)n1c(=O)c(-c2cc3ccccc3[nH]2)nc2ccccc21 (stereo not drawn) returned StopGo reporter 0% and RE007 growth inh 0%.
Screening Cc1noc(C)c1NC(=O)N(C)C[C@H]1OCc2cnnn2CCCC(=O)N([C@H](C)CO)C[C@H]1C returned StopGo reporter -1% and RE007 growth inh 31%.
Screening Cc1ccc(S(=O)(=O)N(C)C[C@@H]2OCc3cnnn3CCCC(=O)N([C@H](C)CO)C[C@@H]2C)cc1 returned StopGo reporter -26% and RE007 growth inh 17%.
`COCCCNC(=S)N1CCN(c2nc(-c3ccc(Cl)cc3)cs2)CC1` gave StopGo reporter inconclusive and RE007 growth inh -13%.
CCOc1ccc(NS(=O)(=O)c2cccs2)cc1S(=O)(=O)N1CCCC1 was read as StopGo reporter 47%[activator] and RE007 growth inh 2%.
CCC(=O)N1CCCC(C)(C(=O)Nc2ccc(C)c(C)c2)C1 (stereo not drawn) was read as StopGo reporter 0% and RE007 growth inh -4%.
For S=C(NCCc1ccccc1)N1Cc2ccccc2-n2nncc2C1 the results were StopGo reporter inconclusive and RE007 growth inh 8%.
For CN(C(=O)c1cccc(NC(=O)Cc2cccc(NC(=O)C3CCCN(C(=O)C4CC4)C3)c2)c1)C1CC1 (stereo not drawn) the results were StopGo reporter -4% and RE007 growth inh 0%.
Nc1ccc2c(c1)C1(CCC2)NC(=O)NC1=O (stereo not drawn) was read as StopGo reporter -14% and RE007 growth inh -9%.
Cc1ccc(S(=O)(=O)N2[C@H](CC(=O)c3cccc4ccccc34)OC[C@@H]2C)cc1 was read as StopGo reporter -2% and RE007 growth inh 13%.
For C[C@@H]1CN([C@@H](C)CO)C(=O)CCCn2nncc2CO[C@@H]1CN(C)S(=O)(=O)c1ccc(Cl)cc1 the results were StopGo reporter 6% and RE007 growth inh -2%.
Screening COc1ccc(Br)c(Cn2c(C)c(C(=O)NCCC#N)sc2=O)c1 returned StopGo reporter -9% and RE007 growth inh 2%[18.4 µM].
`COc1ccc(Nc2nc3cc(-c4ccccc4C)sc3c(=O)n2C)cc1OC` gave StopGo reporter 10% and RE007 growth inh 3%.
Screening CCCCNC(=O)CN1C(=O)CSc2ccc(S(=O)(=O)N3CCOCC3)cc21 returned StopGo reporter -14% and RE007 growth inh 8%.
For Cc1cccc(C)c1NC(=O)C1(C)CCC(=O)N1C1CCN(Cc2ccccc2)CC1 (stereo not drawn) the results were StopGo reporter -3% and RE007 growth inh -6%.
Screening CC(C)c1ccc(S(=O)(=O)NCCCN2CCOCC2)cc1 returned StopGo reporter -16% and RE007 growth inh 6%.
Screening CCCn1c(=NC(=O)c2ccncc2)c(C#N)cc2c(=O)n3cccc(C)c3nc21 returned StopGo reporter 0% and RE007 growth inh -9%.
For Cc1ccccc1-c1cc2nc(NCc3ccccc3F)n(C)c(=O)c2s1 the results were StopGo reporter -1% and RE007 growth inh -5%.
O=C(NC1CCCC1)N[C@@H]1CC[C@@H](CC(=O)N2CCOCC2)O[C@@H]1CO was read as StopGo reporter -15% and RE007 growth inh 7%.
For CCOC(=O)c1c(NC(=S)SC)sc(C(=O)N2CCc3ccccc3C2)c1C the results were StopGo reporter 0% and RE007 growth inh 11%.
For Cc1ccccc1S(=O)(=O)N1C[C@H]2CON(C)[C@H]2C[C@H]1c1cccc(-c2ccccc2)c1 the results were StopGo reporter -20% and RE007 growth inh 7%.
`O=C1Nc2ccccc2-c2nnnn2C1N1CCC(Cc2ccccc2)CC1` (stereo not drawn) gave StopGo reporter -11% and RE007 growth inh 5%.
Screening Cc1cccc(C)c1NC(=O)C(C1CC1)n1c(-c2ccc(=O)[nH]c2)nc2ccccc21 (stereo not drawn) returned StopGo reporter -10% and RE007 growth inh 10%.
COc1ccc2c(C)cc(=O)oc2c1OCC(O)CN1CCOCC1 (stereo not drawn) was read as StopGo reporter -8% and RE007 growth inh -15%.
`COc1ccc(CN2C(=O)C(CC(=O)NCc3cccs3)CC(C(=O)N(C)C)=C2C)cc1` (stereo not drawn) gave StopGo reporter -15% and RE007 growth inh 1%.
`O=C(NCc1cccc(C(F)(F)F)c1)c1ccc2sc([C@@H]3O[C@H](CO)[C@H](O)[C@H](O)[C@H]3O)nc2c1` gave StopGo reporter -13% and RE007 growth inh -8%.
O=C1c2ccccc2CCC12OC2c1ccncc1 (stereo not drawn) was read as StopGo reporter -5% and RE007 growth inh 15%.
Screening O=S(=O)(Nc1c(O)ccc2ccccc12)c1ccccc1 returned StopGo reporter 52%[activator] and RE007 growth inh 9%.
For COC(=O)[C@]1(Sc2ccc(C)cc2)CC(=O)N[C@@H]1c1ccco1 the results were StopGo reporter -13% and RE007 growth inh 72%.
N#Cc1cccc(C(=O)C(=O)N2CCCN(Cc3ccc(F)cc3)CC2)c1 was read as StopGo reporter -15% and RE007 growth inh -9%.
`O=S1(=O)CC(N2CCSCC2)CN1Cc1cn(Cc2cccc(Cl)c2)nn1` (stereo not drawn) gave StopGo reporter -9% and RE007 growth inh 1%.
COc1ccc(OC(=O)N(C)C[C@H]2OCc3cnnn3CCCC(=O)N([C@H](C)CO)C[C@@H]2C)cc1 was read as StopGo reporter 1% and RE007 growth inh -6%.
CCc1nc2ccc(C(=O)Nc3cccc(OCC(=O)N(C)C)c3)cn2c1N(C=O)Cc1ccc(OC)cc1 was read as StopGo reporter -9% and RE007 growth inh -4%[18.4 µM].
Screening Cc1cc2c(cc1C)-n1nnnc1C(N1CCN(c3ncccc3C#N)CC1)C(=O)N2 (stereo not drawn) returned StopGo reporter -2% and RE007 growth inh 3%.
For O=C(N/C(=C/c1cccc(Br)c1)C(=O)N1CCOCC1)c1ccco1 the results were StopGo reporter 0% and RE007 growth inh 0%.
`O=c1[nH]cc(Cc2ccccc2)c(=O)[nH]1` gave StopGo reporter 0% and RE007 growth inh -9%.
`O=C(NCCCCc1ccccc1)c1ccccc1Br` gave StopGo reporter 37%[activator] and RE007 growth inh 22%.
For Cc1ccc(CNC(=O)CC[C@H]2O[C@@H](n3cc(C)c(=O)[nH]c3=O)C[C@@H]2O)o1 the results were StopGo reporter -18% and RE007 growth inh 4%.
CSCc1cc(C(=O)NC2CC2)c(N)s1 was read as StopGo reporter -6% and RE007 growth inh -3%.
For COC(=O)C1=C(c2cc3ccccc3s2)C[C@@H]2CC[C@H]1N2C(=O)N1CCC(C)CC1 the results were StopGo reporter -30% and RE007 growth inh -16%.
COc1ccc(CNC(=O)C2(C)Cc3c(-c4ccc(C(N)=O)cc4)ccnc3O2)cc1OC (stereo not drawn) was read as StopGo reporter 0% and RE007 growth inh 8%.
`Cc1cc(C(=O)N2CCC2(C)C(=O)NS(=O)(=O)c2cccc(OC(F)F)c2)nn1C` (stereo not drawn) gave StopGo reporter 3% and RE007 growth inh 2%.
For Cc1ccc(C(=O)OCC(=O)NCc2ccccc2)s1 the results were StopGo reporter -11% and RE007 growth inh 1%.
CCN1C(=O)[C@@H]2[C@@H](c3ccc(-c4cc(C(C)=O)cs4)cc3)N3CCC[C@@]3(C(=O)OC)[C@@H]2C1=O was read as StopGo reporter -23% and RE007 growth inh 0%.
For CCc1nnc(SCc2cccc(F)c2)nc1CC the results were StopGo reporter -14% and RE007 growth inh 2%.
Cc1ccc(Cc2c(-c3cccc(Br)c3)nc3ccc(Cl)cn23)cc1 was read as StopGo reporter 15% and RE007 growth inh -16%.

The list is partial; rates above refer to the full screens.
